# From PubChem BioAssay
# T cruzi inh – inhibitors of intracellular T. cruzi growth, primary screen, luminescence, NIH3T3 host cells; inhibition, % (no concentration beside the values); AID 1885, 2009; T. cruzi beta-gal in NIH3T3, 90 h; 1.4% of 300,000 active;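 active means mean inhibition across valid replicates above about 55%, limit read from the data; inconclusive means mean below that limit but half or more replicates reach it; inactive means mean below it, under half of replicates reach it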;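 further: signal also drops with host cell toxicity which is not excluded here; 0% = plate median of DMSO wells and 100% = zero luminescence signal; higher percent means less beta-gal luminescence so fewer parasites; stock transfer was 50 nL into about 50 µL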
# Calb FLC – C. albicans growth inhibition with fluconazole, primary screen, CaCi-2 strain, Alamar Blue fluorescence. 0.57% of 300,000 active. AID 1979, 2009. C. albicans CaCi-2 (fluconazole-resistant clinical isolate) + fluconazole, 48 h. growth inhibition, % (no concentration beside the values);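 active means most replicates above 75%; inconclusive means exactly half above 75%; inactive means most below 75%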;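 further: all wells also contain fluconazole at 8 µg/ml as a sub-toxic cotreatment; 0% = median of DMSO wells and 100% = median of geldanamycin control wells; wells of about 8 µL received 7.5 nL stock; the first replicate is given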
# B2AR ag – beta2AR agonists driving receptor internalization, primary screen, cell-based, FAP fluorogen, flow cytometry. response, % (test concentration not listed). AID 504454, 2011. 0.43% of 340,000 active. Am2.2-beta2AR cells; reference of the scale not given here. Beta-2 adrenergic receptor (Homo sapiens), P07550;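 active means response above a set limit, near 3 SD of response in nonfluorescent compounds, cut at about 42% in these data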;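 further: stock transfer was 100 nL into about 11 µL; a reference agonist was the positive control; negative values mostly stem from fluorescent compounds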
# Target sequence (P07550 whole entry, looked up): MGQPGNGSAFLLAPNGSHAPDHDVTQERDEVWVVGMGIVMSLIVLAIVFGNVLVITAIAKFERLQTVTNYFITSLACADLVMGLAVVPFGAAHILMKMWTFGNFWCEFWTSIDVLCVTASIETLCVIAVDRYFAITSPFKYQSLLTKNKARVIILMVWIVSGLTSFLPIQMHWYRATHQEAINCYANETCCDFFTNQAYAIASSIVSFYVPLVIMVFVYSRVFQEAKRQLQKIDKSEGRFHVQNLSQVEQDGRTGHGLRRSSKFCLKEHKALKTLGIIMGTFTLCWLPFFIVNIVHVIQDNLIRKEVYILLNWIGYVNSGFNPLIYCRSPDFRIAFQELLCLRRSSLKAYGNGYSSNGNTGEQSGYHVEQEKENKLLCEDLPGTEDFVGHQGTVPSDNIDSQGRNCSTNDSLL
# ALR H2O2 inh – inhibitors of human ALR sulfhydryl oxidase, primary screen, biochemical, H2O2 detection, HRP-luminol luminescence, single point. FAD-linked sulfhydryl oxidase ALR (Homo sapiens), P55789. purified ALR, DTT oxidation. inhibition, % (test concentration not listed). 3.8% of 290,000 active. AID 485317, 2010;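 active means mean and each replicate at 75% or more; inconclusive means only one of the two met; inactive means neither met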;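 further: stock transfer was 7.5 nL into about 7.5 µL; 0% = neutral wells and 100% = wells with inactivated enzyme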
# Target sequence (P55789 whole entry, looked up): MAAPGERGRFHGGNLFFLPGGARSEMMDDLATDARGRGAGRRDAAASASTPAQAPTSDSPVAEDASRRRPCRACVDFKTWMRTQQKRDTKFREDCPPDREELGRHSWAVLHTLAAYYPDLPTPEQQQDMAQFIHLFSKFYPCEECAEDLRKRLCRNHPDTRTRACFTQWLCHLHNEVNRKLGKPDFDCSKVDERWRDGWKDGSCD
# Beta cell apopt – inhibitors of cytokine-induced beta cell apoptosis, primary screen, luminescence. AID 435005, 2010. 0.8% of 300,000 active. protection from apoptosis, % (no concentration beside the values). INS-1E cytokine-induced death, ATP luminescence, 48 h; percent of positive-control rescue, neutral wells zero;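 active means all replicates at 75% or more, or half of them and the mean; inconclusive means half reach 75% but not the mean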;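 further: 0% = cytokine-treated negative control wells and 100% = positive control rescue; higher means more ATP so stronger rescue from cytokine killing; wells of about 40 µL received 100 nL stock; the first replicate is given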
# rRNA inh HTS – reduced GFP signal of wild-type E. coli, primary screen, bacterial rRNA inhibitor project, GFP/RFP fluorescence, OD600, single point; E. coli WT GFP vs humanized-ribosome RFP mutants, 24 h; hits give low values; DMSO median 0, no signal -100; GFP signal change (wild-type ribosome), % (concentration not given with the values); 1.6% of 350,000 active; AID 720706, 2013;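 active means significant combined selectivity score with lowered wild-type GFP, culture density cut under 30%, mutant RFP and density less affected; inactive means any of these conditions unmet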; further: one replicate is shown; some compounds called inactive have numbers as strong as hits
# A1 inh – caspase 3/7 activation in MEF A1-2A-BIM cells, primary screen, A1 inhibitor project, cell-based, luminescence, HTS; Caspase-Glo 3/7 luminescence, 3 h; percent of clofoctol response, vehicle zero; 0.066% of 330,000 active; caspase activation, % (concentration not given with the values);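 active means over half of replicate activation scores above 10%, or exactly half above 10 with the replicate mean above 10; inconclusive means replicate mean below 10 yet half the replicates above 10; inactive means over half of replicates below 10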;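 further: wells of about 30 µL received 50 nL stock; many hits fall short of the cut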
# LANA-H2A inh – blockers of LANA interaction with H2A/H2B – biochemical, FP readout, HTS, primary screen; cell-free LANA-H2A/H2B peptide, fluorescence polarization; inhibition, % (concentration not given with the values); 0.6% of 320,000 active; in the data active means inhibition mostly above about 10%, no sharp cut-off; inactive means mostly below about 6.7%;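 further: stock transfer was 7.5 nL into about 10 µL; 0% = median of vehicle wells and 100% = median of positive control wells; one replicate is shown; the record names a cut of 25% in any replicate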
# rRNA inh HTS OD600 – second read-out of rRNA inh HTS, no call of its own (marks repeat the call); OD600 change, %; measured here: OD600 growth;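 optical density of the mix in the first replicate; 0 = DMSO median and -100 = no signal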
# rRNA inh HTS RFP – also measured in rRNA inh HTS; calls as there; RFP signal change, %; measured here: RFP humanized mutant strains;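 first replicate; 0 = DMSO median and -100 = no signal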
# * = called active by the depositor; ? = inconclusive; nt = no result given. A portion of the library. The share of hits here may be higher or lower than overall.
SMILES,T cruzi inh,Calb FLC,B2AR ag,ALR H2O2 inh,Beta cell apopt,rRNA inh HTS,rRNA inh HTS OD600,rRNA inh HTS RFP,A1 inh,LANA-H2A inh
O=C(NNC(=S)NC(=O)c1ccccc1[N+](=O)[O-])c1ccccc1O,5.5,-23.8,-1.1,54.8,4.8,-36.0,-38.4,-9.4,-3.8,-6.3
CCCCCCCCn1c(=O)c(C(=O)OC)c(N)c2ccccc21,13.6,-4.5,-8.5,-14.1,116.7*,-23.6,-34.3,-2.9,0.5,0.6
O=C(c1cc2ncc(Br)cn2n1)N1CCN(C(=O)c2ccco2)CC1,6.0,-6.6,3.9,-4.1,-6.8,nt,nt,nt,1.0,-4.9
CC(Oc1ccc(Cl)cc1Cl)C(=O)N/N=C1\CCCc2ccccc21 (stereo not drawn),18.9,-3.5,2.4,-3.6,3.0,nt,nt,nt,-0.4,-3.4
CC1CCN(C(=S)SCc2nc(N)nc(Nc3ccccc3)n2)CC1,42.1,-6.1,-14.2,25.5,1.3,-27.7,-45.3,-4.1,-0.2,3.8
CC(=O)Nc1ccc(NC(=O)C(C)OC(=O)CN(C)S(=O)(=O)c2ccc(Cl)cc2)cc1 (stereo not drawn),-3.9,-3.9,0.0,-3.5,-1.2,nt,nt,nt,-0.4,2.2
Cn1nc(-c2ccccc2)cc1NC(=O)C1CCCCC1,5.1,1.8,-4.0,-2.7,8.6,8.0,9.3,0.3,2.1,-1.9
CCOC(=O)C1CN(S(=O)(=O)c2ccccc2)CCN1S(=O)(=O)c1ccccc1 (stereo not drawn),16.3,12.1,10.0,-2.3,-3.1,nt,nt,nt,0.7,-5.8
CCOP(=O)(OCC)C(Nc1ccc(C)cc1)c1ccco1 (stereo not drawn),3.6,8.5,-20.2,?,1.2,14.0,7.5,1.4,1.1,-3.5
CN(CCC1CCOCC1)C(=O)CC1C(=O)NCCN1CC1CCCCC1 (stereo not drawn),3.6,-26.8,15.2,nt,-15.6,13.8,7.3,4.0,-0.1,-3.9
Cc1ccc2[nH]c(=O)c(CN(CC3COCCO3)C(=O)Nc3ccccc3F)cc2c1 (stereo not drawn),13.0,14.1,-1.2,3.5,-6.2,10.8,2.4,2.2,-0.4,1.1
O=C(CN1C(=O)COc2ccccc21)N1CCCc2ccccc21,-8.0,-4.9,3.3,-7.1,-4.8,-6.5,-9.4,-4.3,0.6,-0.5
Cc1ccc(S(C)(=O)=O)cc1S(=O)(=O)Nc1cccc(Cl)c1,-8.6,0.9,2.6,-7.6,-0.9,nt,nt,nt,-0.4,3.4
Cc1cc(C)n2nc(CC(=O)NNC(=O)COc3cccc(C)c3C)nc2n1,-12.4,-7.1,1.5,nt,-5.5,11.8,7.8,0.6,-0.4,-0.4
COc1ccc(C2Nc3ccccc3C(=O)N2C2CCCCC2)cc1 (stereo not drawn),-8.9,-4.8,1.6,-4.2,-2.6,nt,nt,nt,-1.1,0.5
O=C(c1ccco1)N1CCN(C(=O)c2cc(=O)[nH]c3ccccc23)CC1,nt,nt,2.3,-3.0,-12.6,10.0,13.3,-1.9,-0.6,-0.1
COc1ccccc1NS(=O)(=O)c1ccc(Cl)c(NC(=S)NC(=O)C2CCCC2)c1,5.7,12.8,-7.1,-8.4,-0.6,nt,nt,nt,0.4,0.4
COCCNC(=O)CCc1c(C)nc2nc(-c3cc(OC)cc(OC)c3)nn2c1C,-4.4,-10.4,-16.0,-5.3,0.2,7.1,5.1,1.1,0.1,-3.3
CCC(=O)N1c2ccccc2NC2=C(C(=O)CCC2)C1c1cccnc1 (stereo not drawn),-2.3,-4.6,4.8,-2.7,-2.2,nt,nt,nt,0.6,1.6
c1c(C2CCCCC2)n[nH]c1CN1CCCCC1,-1.7,?,-0.8,-14.1,0.8,nt,nt,nt,0.2,2.8
O=C(Nc1c(F)cc(F)cc1Br)C1CCCO1 (stereo not drawn),-7.0,-3.6,4.7,-0.3,8.6,nt,nt,nt,-0.2,-4.4
O=S(=O)(NCCc1ccccc1)c1ccccc1,-18.7,-3.1,-2.0,-5.8,-2.8,nt,nt,nt,-1.0,-1.9
O=C(CN(c1cccc([N+](=O)[O-])c1)S(=O)(=O)c1ccccc1)N1CCCCC1,-8.8,0.9,18.2,-4.3,3.1,-9.2,8.2,-2.7,0.4,2.5
C/C(=N/NC(=O)CNC(=O)C1COc2ccccc2O1)c1cccc(O)c1 (stereo not drawn),1.8,6.5,-4.0,33.1,3.5,-8.6,-5.9,-1.2,0.1,-2.8
Cc1cc(SCC(=O)c2cc(C)n(C)c2C)nc2ccccc12,8.8,-4.4,2.3,0.0,5.8,12.3,14.7,1.7,0.1,0.3
Cc1cccc(CCNS(=O)(=O)c2cc3c(cc2C)NC(=O)CO3)c1,8.1,8.9,3.4,-5.4,-1.4,-0.6,-15.6,1.9,0.8,7.8
OCCC1CN(Cc2ccccc2-c2ccco2)CCN1Cc1ccsc1 (stereo not drawn),7.4,5.3,-7.0,nt,-9.7,11.8,3.9,5.3,-0.2,-2.2
COC(=O)Nc1sc2nc(C)cc(C)c2c1-n1cccc1,-7.9,4.5,-8.4,18.0,3.4,nt,nt,nt,nt,1.7
O=C(NCCc1c[nH]c2ccccc12)c1ccc(-n2cnnn2)cc1,8.7,-5.7,1.2,24.2,-3.3,nt,nt,nt,0.3,-0.5
Cc1c(Br)c([N+](=O)[O-])nn1CCCC(=O)Nc1sc2c(c1C#N)CCC2,16.9,?,59.4*,-0.1,1.0,nt,nt,nt,-0.2,-8.0
COC(=O)C1=C(C)N=C2SC(C)C(=O)N2C1c1cccs1 (stereo not drawn),0.5,-3.2,6.9,-2.9,-2.6,nt,nt,nt,0.0,0.3
Cc1ccc(CN2CCN(/N=C/c3ccco3)CC2)c(C)c1,-7.8,-15.1,5.0,nt,2.2,nt,nt,nt,0.5,-7.5
COc1cc2sc(C)nc2c2ccccc12,-9.2,9.3,3.1,nt,-6.4,-5.3,-6.9,-0.7,0.0,-2.2
Cc1ccc(Cl)cc1N1CCN(C(=O)CNC(=O)c2ccc(Br)o2)CC1,nt,nt,8.9,-0.7,2.9,-59.0,-69.6,-15.7,-0.3,3.1
C/C(=N\Nc1ccc2nncn2n1)c1ccco1,-5.2,-0.3,3.8,25.2,-2.3,4.5,7.6,-1.4,0.2,-4.8
CCOC(=O)Nc1ccc2c(c1)N(C(=O)CCN1CCOCC1)c1ccccc1S2=O (stereo not drawn),-20.0,25.6,-8.2,15.6,-39.4,nt,nt,nt,0.8,5.1
Nc1nc(NC(=O)c2ccco2)nn1-c1ccccc1,-2.6,-14.0,-2.4,-3.4,-2.3,nt,nt,nt,-0.3,3.2
COc1cc(Cn2nnc3ccccc32)ccc1O,-4.4,1.8,0.1,nt,-3.9,-1.5,1.6,-1.9,0.5,1.1
Nc1nc(SCC(=O)Nc2c(Br)cc([N+](=O)[O-])cc2Br)n[nH]1,16.2,3.7,0.3,-32.5,-8.4,10.7,2.0,-1.3,0.3,1.8
CCCCOC(=O)Oc1ccc2c(=O)c(Oc3cc(C)cc(C)c3)coc2c1,-2.7,2.5,12.1,-2.0,-1.5,nt,nt,nt,2.7,-2.8
COc1cc(C2NC(=O)C(C#N)=C(S)N2c2ccc(C)cc2)ccc1OC(C)C (stereo not drawn),-11.3,-0.7,-6.2,42.7,4.4,nt,nt,nt,-6.4,-0.9
Cc1ccc(CSCC(=O)NCc2ccc(F)cc2)cc1,2.9,1.9,5.5,1.4,-5.8,-12.8,-0.3,-1.0,-0.8,-1.0
COc1ccc(/C=N/Nc2nnc(Cc3ccc(OC)c(OC)c3)c(=O)[nH]2)cc1OC,-6.9,-2.1,0.0,-0.2,-2.2,2.6,-0.8,-4.3,-0.4,-4.8
CCN(CC)CC#CCC(O)(c1ccccc1)c1ccccc1,14.7,-5.3,1.8,-9.4,3.4,-0.6,-6.2,0.3,-0.9,-0.7
CNC(=O)CSc1nnc(NC(=O)C2CC(=O)N(c3ccccc3OC)C2)s1 (stereo not drawn),-10.1,-6.5,6.5,-13.2,2.1,2.2,14.3,6.2,0.2,0.2
NC(=O)Cc1cn(-c2ncc(C(F)(F)F)cc2Cl)c2ccccc12,-0.7,0.2,0.2,16.4,-2.3,nt,nt,nt,-0.5,-1.9
Cc1ccc(NC(=O)Nc2cccs2)nc1,-9.9,0.7,-5.2,98.4*,-7.9,nt,nt,nt,-1.1,-4.2
CN(C1CCCCC1)S(=O)(=O)c1ccc(NC(=O)c2ccc(Br)o2)cc1,33.8,-34.8,-8.8,1.6,11.6,nt,nt,nt,0.1,1.7
COCCN=c1scc(-c2cccs2)n1/N=C(\C)c1ccco1,0.1,17.0,22.4,nt,-8.2,3.4,1.6,3.5,-2.0,-0.8
N#Cc1c(N)nc(Sc2ccc(Cl)cc2)c(C#N)c1-c1ccccc1Cl,47.0,5.4,-3.3,-1.2,25.2,-0.6,0.1,-2.1,0.3,-3.0

# (continued)
SMILES,T cruzi inh,Calb FLC,B2AR ag,ALR H2O2 inh,Beta cell apopt,rRNA inh HTS,rRNA inh HTS OD600,rRNA inh HTS RFP,A1 inh,LANA-H2A inh
CCCCCOC(=O)CSc1nnc(-c2ccccc2)c(=O)[nH]1,-8.6,2.6,-13.1,-1.4,-8.4,nt,nt,nt,0.7,-6.5
O=C(NCCc1ccccn1)c1cc(-c2ccc(Cl)c(Cl)c2Cl)nc2ccccc12,26.4,8.8,-10.5,0.0,7.8,nt,nt,nt,-0.5,7.7
CC(C)OC(=O)c1ccc(NC(=O)c2cncc(Br)c2)cc1,-3.4,-20.5,-14.9,3.0,-9.1,3.6,-2.0,8.3,-1.0,-10.5
Cc1cc(Cl)ccc1OCC(=O)N(Cc1cccs1)C1CCS(=O)(=O)C1 (stereo not drawn),2.1,-7.7,-2.6,-5.2,0.8,-23.3,-20.7,-0.8,-1.1,6.7
O=C1CCC(/C=C/c2ccccc2)=NN1,-9.6,-7.4,-4.3,-5.6,nt,16.7,20.8,1.6,0.6,-3.7
O=C(N/N=C/c1ccccn1)c1ccc([N+](=O)[O-])cc1Cl,-8.2,0.0,7.4,nt,-2.7,14.2,9.9,0.8,0.4,1.9
Cc1ccc(NC(=O)CNC(=O)CC23CC4CC(CC(C4)C2)C3)c(O)c1,-5.3,-1.2,4.3,nt,2.2,1.6,-1.5,-0.3,-0.6,nt
